High-throughput results (PubChem)
TRPV1 PAM: enhances activation of the human vanilloid receptor TRPV1 | Q8NER1 | TRPV1-expressing cells, Fluo-8 calcium influx, capsaicin EC20 potentiation; host cell line not named in the record; control for the full effect not named in the record | hit rate 0.02% among 320,000 | AID 540277 | potentiation, % at 8.33 µM; active means potentiation above 80%; inconclusive means 30% to 80%; inactive means below 30%; note: 0% is about no effect
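Fluo-8 calcium influx in TRPV1-expressing cells, kinetic read (ex 480/em 520 nm). Compound added and read 3 min for agonist activity, followed by capsaicin at EC20 final and 2 min further read for enhancement.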
Six1-Eya2 blk: Six1/Eya2 interaction inhibition. activity change, % (concentration not given with the values). hit rate 0.56% among 360,000. AlphaScreen GST-Six1/His-Eya2 binding, biochemical; hits give low values; control for the full effect not named in the record. Q15475+O00167. AID 651725; in the data active = activity change below about -65%; inconclusive = about -30% to -65%; inactive = above about -30%; note: % is set by controls: 0 for no effect and ±100 for the full control effect
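Homogeneous AlphaScreen proximity assay pairing GST-Six1 with His-tagged Eya2 (added as 5X mix: 250 nM and 500 nM) in 50 mM Tris pH 8.0, 300 mM NaCl, 1 mM TCEP. Glutathione donor and nickel acceptor beads; 1 h, 37 °C, dark.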
D2 agonist: human D2 receptor agonism in beta-arrestin assay; DiscoveRx PathHunter D2 beta-arrestin, luminescence, 90 min; 100% = 57 uM dopamine signal; activation, % (concentration not given with the values); hit rate 0.084% among 360,000; AID 624465; in the data active = activation above about 40%; inconclusive = about 15% to 40%; inactive = below about 15%; note: compound concentration not given in the record; the text of the record calls up to 30% inactive
Target sequence (P14416 whole entry, looked up): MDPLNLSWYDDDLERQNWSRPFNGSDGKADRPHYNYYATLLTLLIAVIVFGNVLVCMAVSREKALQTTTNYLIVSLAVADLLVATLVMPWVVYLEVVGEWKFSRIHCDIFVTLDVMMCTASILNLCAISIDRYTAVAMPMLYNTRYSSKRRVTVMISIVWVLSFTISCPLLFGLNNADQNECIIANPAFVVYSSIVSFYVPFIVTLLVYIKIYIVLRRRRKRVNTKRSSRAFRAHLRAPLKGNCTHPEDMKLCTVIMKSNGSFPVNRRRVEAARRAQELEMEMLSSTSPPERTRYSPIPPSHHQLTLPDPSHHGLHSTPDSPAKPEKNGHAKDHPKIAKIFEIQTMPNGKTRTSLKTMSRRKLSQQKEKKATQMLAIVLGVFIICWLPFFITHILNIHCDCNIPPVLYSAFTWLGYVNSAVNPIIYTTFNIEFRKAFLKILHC
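DiscoveRx PathHunter D2 beta-arrestin cells (2,100/well) attached overnight, then compound-stimulated 90 min at 37 C in HBSS/10 mM HEPES/0.1% Tween-20 buffer; beta-galactosidase complementation read by luminescence after 1 h at ambient temperature. Dopamine 57 uM final (EC100) as control.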
D2 potentiator: human D2 receptor positive allosteric modulation | P14416 | potentiation, % (no concentration beside the values) | AID 624464 | DiscoveRx D2 beta-arrestin cells, luminescence, 90 min; 100% = 57 uM dopamine signal | hit rate 0.23% among 360,000; active = potentiation of 50% or more; inconclusive = 30% to 50%; inactive = 30% or less;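 note: compound concentration not given in the record; tested on top of an EC20 dose of dopamine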
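D2 cells co-treated with compound plus 50 nM dopamine (EC20) for 90 min at 37 deg C to detect potentiation. Beta-arrestin recruitment was read as enzyme-fragment luminescence after 1 h at ambient temperature. Full response was set by 57 uM dopamine.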
PINK1 modulator: modulators of PINK1 expression; hit rate 0.2% among 410,000; Potency, µM (highest dose often 76.6 µM), for inactives: top-dose activation (PINK1 increase), usual class: activators; AID 624263; PINK1 immunofluorescence, high-content cytometry, 24 h; active = well fitted activation curve with a large enough effect; inconclusive = small, poorly fitted or top-dose-only effect; inactive = flat fitted curve, though single readings scatter; cell line not stated here;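 note: potency is the fitted concentration of half-maximal effect; % of control where 0% means no effect; nearly all actives have a fitted effect of over 65% in size; a mitochondrial uncoupler was the plate control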
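PINK1 protein, normally rapidly degraded, was detected by immunofluorescence after 24 hour compound treatment of a stable cell line. Titration data (5 concentrations) came from laser-scanning cytometry, with CCCP-treated wells as controls.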
CtBP-E1A inh: blocks the CtBP interaction with E1A | AlphaScreen GST-E1A/His-CtBP binding, 1536-well; hits give low values; control for the full effect not named in the record | hit rate 0.49% among 340,000 | activity change, % (no concentration beside the values) | AID 651724; in the data active means activity change below about -65%; inconclusive means about -30% to -65%; inactive means above about -30%; note: % is set by controls: 0 for no effect and ±100 for the full control effect; compound concentration not given in the record
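Steps: dispense buffer (Tris pH 8.0, NaCl 300 mM, TCEP 1 mM, BSA, Tween 20); add 5X protein mix (GST-E1A, His-CtBP, 125 nM each); pin 23 nL compound; 2 h at 37 °C, dark; add 5X beads (50 ug/mL); 1 h; read.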
Sfp PPTase inh: blocks B. subtilis Sfp PPTase activity | Biochemical Sfp PPTase activity, qHTS | Potency, µM, for the others: max response, negative = inhibition, actives largely listed as inhibitors | hit rate 3.5% among 310,000 | AID 1490; active = well fitted inhibition curve with a large enough effect; inconclusive = small, poorly fitted or top-dose-only effect, or another doubt; inactive = no such curve, though single readings can be large or run the other way;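 note: the enzyme is Sfp with the accession as filed and its product quenches rhodamine fluorescence; potency is the fitted concentration of half-maximal effect; 0% = enzyme reaction without inhibitor and -100% = no enzyme wells; top concentration of the series not given in the record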
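Buffer: 50 mM Hepes-Na pH 7.6, 10 mM MgCl2, 0.01% Nonidet P-40, 0.01% BSA. Enzyme 15 nM, pre-exposed to compound 15 min; substrates then added and fluorescence change tracked over 30 min.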
Starred values were filed as active, the others as inactive; u = inconclusive; x = no result given; & = joins results of further samples; [ ] = another dose, or the depositor's remark.

SMILES | TRPV1 PAM | Six1-Eya2 blk | D2 agonist | D2 potentiator | PINK1 modulator | CtBP-E1A inh | Sfp PPTase inh
CN(Cc1ccon1)C(=O)CCc1nnc(CCCCc2ccccc2)o1 | -1 | -2 | -1.7 | -3 | 1.9% | 5 | 16%
O=C(Nc1nc(-c2ccc3c(c2)OCO3)cs1)c1ccncc1 | 1 | -28 | 0.6 | -12 | 3.8% | -2 | 7%
CCCc1cc(=O)oc2cc(C)cc(OCC(=O)NCCCn3ccnc3)c12 | 0 | 0 | 3.0 | -2 | 1.6% | x | 14%
CCNC(=O)N1CCCC(C(=O)c2ccc(C(F)(F)F)cc2)C1 (stereo not given) | -12 | -2 | 1.4 | 4 | 2.9% | 15 | 9%
C/C=C(\C)CN1CCC(Oc2ccc(C(=O)NCc3ccccn3)cc2)CC1 | 0 | -14 | -7.2 | -15 | -1.2% | -23 | 5%
O=C(CN1C(=O)S/C(=C/c2ccncc2)C1=O)Nc1ccccc1 | -1 | -9 | 4.4 | 8 | 0.4% | -10 | 1%
Cc1ccc(N(C(=O)CNC(=O)c2ccco2)C(C(=O)NC2CCCCC2)c2cccnc2)c(C)c1 (stereo not given) | 4 | -8 | 1.5 | 2 | 4.0% | 0 | 33%[activator]
Cc1ccc(C)n1-n1c(C)nc2sc3c(c2c1=O)CCCCC3 | -5 | -24 | -4.2 | -6 | 3.5% | -16 | -7%
COCCCNC(=O)c1oc2ccc(S(=O)(=O)N3CCOCC3)cc2c1C | 6 | 0 | -2.2 | 1 | -1.0% | -7 | 13%
COc1cc2c(cc1OC)C(COc1ccc(F)cc1)N(C(C)=O)CC2 (stereo not given) | -1 | 4 | -10 | -2 | -3.1% | 6 | 4%
COc1ccc(-c2[nH]ncc2CN2CCN(C3CCCCC3)C(=O)C2)cc1F | 4 | -1 | 1.9 | -6 | 1.1% | 3 | 6%
COc1ccc2c(c1)-c1nc(/N=C/c3ccccc3O)sc1CC2 | 11 | -25 | 5.9 | 18 | 2.1% | -22 | -19%
CC(=O)Nc1ccccc1NC(=O)c1ccccc1-c1ccccc1 | -16 | 24 | 0.8 | -20 | -0.8% | 0 | 11%
COC(=O)C1=C(NC(=O)C2CCCCC2)CCS1 | -19 | -15 | 0.7 | 5 | 12% | 2 | 2%
Cc1onc(-c2ccccc2)c1C(=O)Nc1cc(C(F)(F)F)ccc1N1CCOCC1 | -34 | -7 | 2.5 | 12 | 2.0% | 4 | -5%
O=C(CNC(=O)c1ccccc1)NC1(C(=O)NC2CCCC2)CCCCC1 | -11 | 5 | -0.4 | 8 | x | 0 | 11%
O=C(OCc1ccccc1)c1cc(S(=O)(=O)N2CCCCC2)ccc1N1CCOCC1 | 2 | -6 | 2.7 | 26 | 1.1% | 2 | x
CC1=C(C(N)=O)C(c2ccccc2)n2nc(-c3ccncc3)nc2N1 (stereo not given) | 1 | 1 | -4.1 | 3 | -1.2% | 16 | 5%
Cc1ccc(NC(=O)C2=CCN(S(=O)(=O)c3ccc(F)cc3)CC2)cc1 | -26 | 3 | -5.1 | 3 | 9.5% | 2 | 0%
COc1ccccc1CNC(=O)COC(=O)CSc1ccc(F)cc1 | 26 | 8 | -1.8 | -7 | 0.3% | -19 | x

The final 4 records of the part above open the next one:
SMILES | TRPV1 PAM | Six1-Eya2 blk | D2 agonist | D2 potentiator | PINK1 modulator | CtBP-E1A inh | Sfp PPTase inh
O=C(OCc1ccccc1)c1cc(S(=O)(=O)N2CCCCC2)ccc1N1CCOCC1 | 2 | -6 | 2.7 | 26 | 1.1% | 2 | x
CC1=C(C(N)=O)C(c2ccccc2)n2nc(-c3ccncc3)nc2N1 (stereo not given) | 1 | 1 | -4.1 | 3 | -1.2% | 16 | 5%
Cc1ccc(NC(=O)C2=CCN(S(=O)(=O)c3ccc(F)cc3)CC2)cc1 | -26 | 3 | -5.1 | 3 | 9.5% | 2 | 0%
COc1ccccc1CNC(=O)COC(=O)CSc1ccc(F)cc1 | 26 | 8 | -1.8 | -7 | 0.3% | -19 | x
O=[N+]([O-])c1cccc(/C=C/c2nc[nH]c2[N+](=O)[O-])c1 | 3 | -3 | -7.4 | -3 | 2.5% | u | 13%
O=C(CN1CCN(C(=O)c2ccco2)CC1)N1CCc2[nH]c3ccccc3c2C1 | 3 | -5 | -0.1 | -11 | 1.6% | 3 | 35µM*
CSc1ccc(CN(C)CC(=O)Nc2ccc(NC(C)=O)cc2)cc1 | 8 | -2 | -5.3 | -16 | -0.3% | 5 | 4%
CSCCC(NC(=O)c1ccccc1Cl)C(=O)N1CCN(C(C)=O)CC1 (stereo not given) | 1 | 0 | -3.0 | -9 | -1.0% | -3 | x
OCC1(CCc2ccccc2)CCN(Cc2ccccc2Cl)CC1 | -6 | 4 | -4.9 | -12 | 5.1% | -4 | -3%
CCCCC1(c2ccc(F)cc2)NC(=O)N(CC(=O)N2CCN(C(=O)c3ccco3)CC2)C1=O (stereo not given) | -6 | -1 | -4.6 | -3 | -0.7% | 0 | 7%
O=[N+]([O-])c1ccc2n[nH]nc2c1 | 0 | 0 | -4.9 | -10 | -0.8%&0.4% | 4 | 18%
O=S1(=O)N=C(c2ccccc2)c2ccccc21 | x | 2 | 0.3 | -4 | 1.0% | -3 | x
O=C(CCC(=O)c1cccs1)NCc1ccccc1Cl | x | 8 | -2.2 | -6 | 1.1% | 8 | x
COc1ccc(NC(=O)c2ccc3c(c2)C(=O)N(Cc2cccnc2)C3=O)cc1 | 30 | -2 | 0.9 | -3 | 1.0% | -2 | 9%
Cc1ccc(C(=O)Nc2nc(-c3ccccn3)cs2)cc1S(=O)(=O)N1CCOCC1 | -24 | -91* | 9.9 | 3 | 3.0% | -92* | x
O=c1c[n+]([O-])c2ccccc2n1OCc1ccccn1 | -1 | 2 | -1.9 | -8 | 0.6% | 3 | 1%
COc1cc(C(C)=O)ccc1OCC(O)CN1CCN(c2ccccn2)CC1 (stereo not given) | 0 | 2 | 60* | 23 | 2.6% | 6 | 21%
O=c1[nH]cc(CCc2ccccc2)c(=O)[nH]1 | x | 4 | -1.6 | -1 | -0.2% | 4 | x
Cc1ccc(NC(=O)Cc2nc(-c3c[nH]c(C(=O)N4CCCC4)c3)cs2)c(C)c1 | 2 | -2 | 8.3 | u | 1.2% | x | x
CC(C)CN(C(=O)COC(=O)c1c(Cl)ccc(Cl)c1Cl)C1CCS(=O)(=O)C1 (stereo not given) | 2 | 1 | 3.2 | 2 | 0.6% | -6 | -2%
O=C1c2ccccc2-c2cccc(C(=O)N3CCN(C(=O)c4ccccc4)CC3)c21 | 11 | -2 | -4.2 | 2 | -0.4% | -2 | 21%
O=C(COC(=O)C1CCN(S(=O)(=O)c2ccc(Cl)c(C(F)(F)F)c2)CC1)NCC1CCCO1 (stereo not given) | x | 8 | -1.2 | -13 | -1.4% | 1 | x
COC(=O)c1sc2ncccc2c1OCc1ccc(Cl)cc1Cl | -12 | -9 | -0.6 | 10 | 0.0% | 0 | u
CCOc1ccc(-n2c(=O)c3c4c(sc3n(CC(=O)NCC3CCCO3)c2=O)CCCC4)cc1 (stereo not given) | 6 | 10 | -3.6 | -9 | 1.4% | x | 13%
O=C(CCCCCC(=O)N(CCO)CCO)N(CCO)CCO | -4 | 14 | -1.4 | 20 | 0.4% | 2 | 17%
CC1=NN(C(=O)Cc2ccc([N+](=O)[O-])cc2)C(O)(c2ccccc2)C1 (stereo not given) | 9 | 15 | -3.9 | -3 | 1.5%[38.3 µM] | 47 | 21%
Nc1[nH]c(C(=O)c2ccccc2)c(-c2ccccc2Br)c1C(=O)NCc1ccc(-c2ccccc2)cc1 | x | 1 | x | x | 5.3% | -2 | x
COc1ccc(S(=O)(=O)Nc2cccnc2)c(C)c1C | 0 | 8 | 1.1 | -2 | 0.3% | 2 | 9%
O=C(CC1Sc2ccccc2NC1=O)NNc1ccc(Cl)cc1Cl (stereo not given) | x | 6 | -1.8 | -6 | 12% | 1 | x
COC(=O)c1ccccc1NC(=O)C1CCCC1 | 5 | 1 | -4.0 | -4 | 5.4% | -4 | 10%
COC(=O)C1=C(C)N(CCCC(=O)O)C(=O)NC1c1ccc(C(F)(F)F)cc1 (stereo not given) | -17 | 7 | 1.0 | 1 | 0.0% | 2 | 11%
O=C1CC(c2ccccc2)CC(=O)N1c1ccccc1 | -1 | 1 | -4.3 | -11 | 0.1% | x | 2%
Fc1ccc(C(c2nnnn2C2CCCC2)N2CCN(Cc3ccccc3)CC2)cc1 (stereo not given) | 7 | -4 | -2.6 | -25 | 2.3% | -2 | 9%
CC(=O)c1ccccc1OC(=O)c1ccc([N+](=O)[O-])o1 | 12 | 0 | 1.7 | -4 | 1.2% | 14 | -10%
CCNC(=O)O/N=C(\C)c1sc(-c2ccccc2)nc1C | -2 | -19 | -2.0 | 2 | 0.6% | -12 | 0%
COc1cc(C(=O)NCCOc2ccc(Cl)cc2)ccc1OCc1c(C)noc1C | -7 | 6 | 8.0 | -4 | 6.2% | -12 | x
COc1ccc(CNc2nc(C)cc(C)c2C#N)cc1 | -3 | 8 | 1.2 | -26 | 0.2% | -3 | -1%
COc1ccc(OCC(O)CN(C)C(=O)/C=C/c2cccc([N+](=O)[O-])c2)cc1 (stereo not given) | -18 | -6 | -6.2 | 1 | 1.2% | -3 | -1%
Cc1cc(=O)n(C)c2ccccc12 | -4 | -5 | 0.7 | -7 | 0.9% | 1 | -3%
Cc1ccc(NS(=O)(=O)c2ccc3[nH]c(=O)[nH]c3c2)cc1 | 6 | 2 | -1.9 | -5 | 2.8% | -13 | 9%
COc1ccc(N2CCN(c3cncc(C)n3)CC2)cc1 | x | -25 | -5.5 | -5 | 1.0% | -18 | x
COC(=O)c1ccc2nc(-c3ccc(C)cc3)c(Cc3ccc(OC)cc3C)n2c1 | x | 3 | x | x | 0.4% | 6 | x
Nc1nc(SCCN2C(=O)c3ccccc3C2=O)n[nH]1 | 6 | 1 | -0.7 | -7 | -3.3% | 8 | 8%
COc1ccc(Cl)cc1NC(=O)N1CCN(CCc2ccccc2)CC1 | -4 | -1 | -2.9 | -18 | 2.5%[38.3 µM] | -6 | 6%
COC(=O)c1ccc(NCc2cc(O)ccc2O)cc1O | x | -19 | 14 | 28 | 2.3% | 1 | x
Oc1ccc(N=Cc2ccc(-c3cccs3)s2)cc1 | 0 | -19 | 12 | 56* | u | u | 32µM*
